D2 agonist: agonists of human D2 dopamine receptor (beta-arrestin); P14416; activation, % (no concentration beside the values); AID 624465; hit rate 0.084% among 360,000; DiscoveRx PathHunter D2 beta-arrestin, luminescence, 90 min; 100% = 57 uM dopamine signal; in the data active = activation above about 40%; inconclusive = about 15% to 40%; inactive = below about 15%; note: compound concentration not given in the record; the text of the record calls up to 30% inactive
Target sequence (P14416 whole entry, looked up): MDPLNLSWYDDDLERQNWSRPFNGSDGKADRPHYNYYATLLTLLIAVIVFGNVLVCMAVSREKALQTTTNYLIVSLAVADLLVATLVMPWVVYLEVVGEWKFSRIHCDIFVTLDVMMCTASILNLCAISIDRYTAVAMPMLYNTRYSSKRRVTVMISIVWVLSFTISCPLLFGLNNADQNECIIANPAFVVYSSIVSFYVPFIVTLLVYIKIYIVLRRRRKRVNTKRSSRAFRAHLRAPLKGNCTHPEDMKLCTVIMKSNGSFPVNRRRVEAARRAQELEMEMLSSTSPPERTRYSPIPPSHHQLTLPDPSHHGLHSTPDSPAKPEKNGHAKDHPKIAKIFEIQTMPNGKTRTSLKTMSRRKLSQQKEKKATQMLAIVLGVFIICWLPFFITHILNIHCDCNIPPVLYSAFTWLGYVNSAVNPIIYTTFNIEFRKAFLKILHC
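DiscoveRx PathHunter D2 beta-arrestin cells (2,100/well) attached overnight, then compound-stimulated 90 min at 37 C in HBSS/10 mM HEPES/0.1% Tween-20 buffer; beta-galactosidase complementation read by luminescence after 1 h at ambient temperature. Dopamine 57 uM final (EC100) as control.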
CtBP-E1A inh: inhibitors of CtBP/E1A interaction; AlphaScreen GST-E1A/His-CtBP binding, 1536-well; hits give low values; control for the full effect not named in the record; activity change, % (no concentration beside the values); hit rate 0.49% among 340,000; in the data active means activity change below about -65%; inconclusive means about -30% to -65%; inactive means above about -30%; note: % is set by controls: 0 for no effect and ±100 for the full control effect; compound concentration not given in the record
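Protein mix (5X: 125 nM each GST-E1A, His-CtBP) was incubated with pinned compound 2 h at 37 deg C in dark, in 50 mM Tris pH 8.0 buffer with 300 mM NaCl. Glutathione donor and nickel acceptor beads followed; AlphaScreen signal read after 1 h.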
TRPML1 agonist: human mucolipin-1 channel agonism | TRPML1-expressing cells, Ca2+ dye fluorescence, FDSS; host cell line not named in the record; reference of the full effect not given here | activation, % (test concentration not listed) | hit rate 0.12% among 410,000 | AID 624414; in the data active = activation above about 50%; inconclusive = about 30% to 50%; inactive = below about 30%; note: 0% is about no effect; the text of the record puts the active cut at 80%
Target sequence (Q9GZU1 whole entry, looked up): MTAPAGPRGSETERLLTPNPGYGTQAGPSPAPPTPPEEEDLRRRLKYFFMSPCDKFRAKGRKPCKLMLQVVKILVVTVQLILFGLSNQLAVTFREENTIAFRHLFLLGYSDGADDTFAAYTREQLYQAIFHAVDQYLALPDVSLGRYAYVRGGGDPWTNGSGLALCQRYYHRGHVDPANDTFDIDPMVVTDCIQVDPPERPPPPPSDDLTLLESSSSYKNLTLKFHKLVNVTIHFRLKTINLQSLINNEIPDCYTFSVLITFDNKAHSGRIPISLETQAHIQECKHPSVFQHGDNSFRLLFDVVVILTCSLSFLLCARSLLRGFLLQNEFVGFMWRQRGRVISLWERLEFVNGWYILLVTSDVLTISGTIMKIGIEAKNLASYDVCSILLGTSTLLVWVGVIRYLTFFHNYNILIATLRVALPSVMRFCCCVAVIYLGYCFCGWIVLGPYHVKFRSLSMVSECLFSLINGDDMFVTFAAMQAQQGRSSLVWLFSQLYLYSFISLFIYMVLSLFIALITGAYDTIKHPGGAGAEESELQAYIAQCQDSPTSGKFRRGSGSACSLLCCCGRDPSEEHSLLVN
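Agonist activity was taken from a 110 s kinetic Ca2+ dye read on the FDSS after pinning compounds onto TRPML1-DL cells. The cells were seeded at 1,500/well with Tet inducer, incubated about 16 h, then dye-loaded at room temperature.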
Six1-Eya2 inh: blocks human Six1 binding to Eya2; Q15475+O00167; AlphaScreen GST-Six1/His-Eya2 binding, biochemical; hits give low values; control for the full effect not named in the record; activity change, % (test concentration not listed); hit rate 0.56% among 360,000; AID 651725; in the data active = activity change below about -65%; inconclusive = about -30% to -65%; inactive = above about -30%; note: % is set by controls: 0 for no effect and ±100 for the full control effect; compound concentration not given in the record
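AlphaScreen with GST-Six1 and His-Eya2 (5X mix: 250 nM and 500 nM), glutathione donor and nickel acceptor beads; buffer 50 mM Tris pH 8.0, 300 mM NaCl, 1 mM TCEP; 1 h at 37 C in the dark.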
D2 PAM: human D2 receptor positive allosteric modulation; hit rate 0.23% among 360,000; potentiation, % (no concentration beside the values); DiscoveRx D2 beta-arrestin cells, luminescence, 90 min; 100% = 57 uM dopamine signal; P14416; active = potentiation of 50% or more; inconclusive = 30% to 50%; inactive = 30% or less;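 note: compound concentration not given in the record; tested on top of an EC20 dose of dopamine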
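D2 cells co-treated with compound plus 50 nM dopamine (EC20) for 90 min at 37 deg C to detect potentiation. Beta-arrestin recruitment was read as enzyme-fragment luminescence after 1 h at ambient temperature. Full response was set by 57 uM dopamine.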
PINK1 modulator: PINK1 expression modulation | PINK1 immunofluorescence, high-content cytometry, 24 h | AID 624263 | Potency, µM (series often up to 76.6 µM), for the others: at the top dose activation (PINK1 increase), most hits filed as activators | hit rate 0.2% among 410,000; active = well fitted activation curve with a large enough effect; inconclusive = small, poorly fitted or top-dose-only effect; inactive = flat fitted curve, though single readings scatter; cell line not stated here;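 note: potency is the fitted concentration of half-maximal effect; % of control where 0% means no effect; nearly all actives have a fitted effect of over 65% in size; a mitochondrial uncoupler was the plate control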
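Stable cell line, 250 cells/well, 12 h attachment; compounds pinned at 5 concentrations, 24 h; CCCP control. Fixed with nuclear dye, primary antibodies 12 h at 10 degrees C, secondary plus cell stain; laser-scanning cytometer read.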
* = called active by the depositor; ? = inconclusive; . = no result given; & = joins results of further samples; [ ] = another dose, or the depositor's remark. No enrichment for hits. About 1.3% of those tested had a hit in this group.

SMILES	D2 agonist	CtBP-E1A inh	TRPML1 agonist	Six1-Eya2 inh	D2 PAM	PINK1 modulator
CC(=O)c1cccc(NC(=O)COC(=O)c2cccc(N3C(=O)c4ccccc4C3=O)c2)c1	1.8	2	-0.6	-5	4	1.0%
O=C1NC2(CCCCC2)C(=O)N1c1cccc(Cl)c1	-1.5	.	0.6	-2	-10	-0.5%
Cn1cccc1C(=O)OCC(=O)NCc1cccs1	-1.9	-4	-0.1	1	-5	0.5%
O=C(Nc1cnccn1)c1csc2ccccc12	-3.1	1	0.3	0	-14	4.7%[38.3 µM]
CSCCC(NC(=O)c1ccco1)C(=O)OCc1cc([N+](=O)[O-])cc2c1OCOC2 (stereo unspecified)	2.9	-3	2.6	-8	-9	-0.8%
CCCCN1CC(C)(C)Oc2cccc(F)c2S1(=O)=O	-2.4	6	-0.6	6	-2	0.1%
CC(C)C[C@H](CO)Nc1nc(N(C)c2cccc(Cl)c2)c2ncn(C(C)C)c2n1	1.4	.	2.0	5	-7	6.2%
CNC(=O)c1nn(-c2ccc(C)cc2)ccc1=O	-1.2	9	-0.3	9	-1	1.5%
COc1ccc(OC)c(NC(=O)CSc2ccccc2)c1	-1.2	-2	1.3	0	8	0.1%
CC1(C)CC(=O)C(/C=N/c2ccccn2)=C(O)C1	0.6	14	-0.4	8	-6	6.2%[38.3 µM]
O=C(COc1cc2oc(=O)c3c(c2cc1Cl)CCC3)NCCCN1CCCC1=O	-1.7	?	-0.7	-22	-18	0.8%
CCOC(=O)[C@@H]1[C@H]2COc3ccc(Br)cc3[C@@H]2N2C(=O)N(c3ccc(C(F)(F)F)cc3)C(=O)[C@]12C	-2.2	-5	-0.3	-6	-7	-0.7%
CN(Cc1ccccc1)C(=O)CSc1n[nH]c(N)n1	1.4	4	-0.2	10	-3	0.6%
O=C(COC(=O)c1cc(S(=O)(=O)Nc2ccccc2Cl)ccc1O)Nc1ccc(F)c(F)c1F	1.4	-5	-0.9	6	-6	4.7%
O=C(NCc1ccc(F)cc1)c1ccc(CS(=O)(=O)Cc2ccccc2F)o1	-3.9	4	1.1	0	-19	-0.3%
C=CCOC(=O)C1=C(C)NC(SCC(=O)N(CC)CC)=C(C#N)C1c1ccccc1 (stereo unspecified)	-2.6	-1	6.2	9	7	-2.1%
Cc1cccc(C(=O)Nc2sc(-c3ccccc3)cc2C(=O)O)c1	1.6	0	1.5	0	-12	0.2%
COc1ccc(-c2sc(Nc3ccccc3)n[n+]2-c2ccccc2)cc1Br	-1.1	-5	0.2	-7	-7	0.9%
CCc1ccc(NC(=O)c2cc(-c3ccco3)on2)cc1	-0.7	4	1.2	6	-4	0.1%[38.3 µM]
O=C(OCC1CC(c2ccccc2)=NO1)c1ccc(Br)cc1 (stereo unspecified)	-6.3	8	0.3	3	-8	7.6%
CCNC(=O)C1(C)CCN(C(=O)c2cc(C)oc2C)C1 (stereo unspecified)	-5.0	2	0.2	-1	-3	1.8%
O=S(=O)(c1cccc2ccccc12)N1CCC2CC1c1cc(Cl)ccc12 (stereo unspecified)	2.9	14	3.5	3	0	-1.2%
COc1ccc(OC)c(NC(=O)c2ccc(CSc3nnc(C)s3)cc2)c1	-2.0	-5	0.5	-12	6	-1.5%
CSc1ccc(NC(=O)NCCCN2CCN(c3ccccc3F)CC2)cc1	?	-11	0.2	-24	3	17%
COc1ccc(CCN2C(=O)C3C4C=CC(C5CC45)C3C2=O)cc1OC (stereo unspecified)	-2.7	8	-0.1	6	-1	0.7%

The results go on.
SMILES	D2 agonist	CtBP-E1A inh	TRPML1 agonist	Six1-Eya2 inh	D2 PAM	PINK1 modulator
COC(=O)c1ccc(-n2c(C)cc(C(=O)COC(=O)CC3Sc4ccccc4NC3=O)c2C)cc1 (stereo unspecified)	5.2	?	1.9	-6	1	3.6%
CCCCN(C(=O)CSc1c(C)c(C)cc(C)c1C)c1c(N)n(CCC)c(=O)[nH]c1=O	-4.6	6	0.1	7	-4	2.5%
Cc1cc(/N=C/N(C)C)on1	0.8	9	-0.1	1	-15	4.1%[38.3 µM]
CC1CCCC(NC(=O)C2CCN(S(=O)(=O)N3CCC4(CC3)OCCO4)CC2)C1C (stereo unspecified)	-3.1	9	0.4	8	-4	?
COCc1nc2oc3ccc(F)cc3c(=O)c2cc1C(=O)OC	-6.3	9	-0.2	5	-11	3.0%
C/C(Cc1ccccc1)=N/NC(=O)CNC(=O)C(c1ccccc1)c1ccccc1	-5.5	9	-0.6	4	-6	2.0%
CC1(C)CC(=O)C2=C(C1)N(Cc1cccnc1)C(=O)C2(NC(=O)C1CC1)C(F)(F)F (stereo unspecified)	-1.4	7	-0.6	0	-2	4.4%[38.3 µM]
COC(CNS(=O)(=O)c1cccc2nonc12)OC	-8.6	6	0.1	-1	-2	-0.2%
Cc1ccc(C(=O)NCCCNC(=O)COc2ccc(Cl)cc2)cn1	-4.4	-2	0.0	18	-2	0.9%
CCOC(=O)c1ccc(Nc2c(OCC)c(=O)c2=O)cc1	-6.4	-22	-0.4	?	-9	2.4%
O=C(Nc1ccccc1)N1CCC(C(=O)N2CCN(c3ccccc3F)CC2)CC1	3.9	12	0.5	1	-7	-2.5%
CCCCNS(=O)(=O)c1cc2c3c(c1)CCN3C(=O)CC2	-5.4	.	4.3	7	-6	-1.3%
O=C(NCC1CC1)C1(C(F)(F)F)CC(CCCO)CCCO1 (stereo unspecified)	-0.9	.	-0.1&1.2	3	-1	1.1%
CC1=C(C(=O)N2CCOCC2)C(c2ccc(Cl)cc2)NC(=S)N1 (stereo unspecified)	-3.9	.	0.0	6	-2	1.3%
C/C=C/c1cnc2c(c1)C(=O)N([C@H](C)CO)C[C@@H](C)[C@@H](CN(C)C(=O)NC1CCCC1)O2	-2.2	-11	-0.1	0	0	1.6%
O=C(NCCN1CCC(n2c(=O)[nH]c3ccccc32)CC1)c1ccc(F)cc1F	.	1	-0.7	8	.	0.8%
CC(C)c1ccc(/C=C2\SC(N3CCCC3)=NC2=O)cc1	-2.6	-12	1.4	-5	-15	1.2%
COc1ccc(CN(C)CCCn2cnc3c(OCc4ccccc4)ncnc32)cc1	0.6	-9	2.5	0	-15	1.5%
COCOc1ccc(C2CC(=O)c3c(OCOC)cc(OCOC)cc3O2)cc1 (stereo unspecified)	4.3	2	.	-1	-1	1.8%
O=C(CCc1ccccc1)Nc1cccnc1	-6.5	9	3.1	7	0	-2.1%
CCCn1c(-c2ccncc2)n[nH]c1=S	-0.9	-6	1.9	-7	-7	0.3%
COc1ccc(CC(=O)NNC(=O)c2ccco2)cc1	-1.1	8	0.6	3	2	-0.4%
COc1cc(C(=O)C(=O)c2ccc(OC)c(OC)c2)ccc1O	3.6	-2	0.2	-2	-1	2.7%
N/C(=N\OCc1ccccc1)c1nonc1N	4.4	-22	1.3	6	-6	0.5%
CC(C)C(=O)Nc1c(-c2ccccc2)c(=O)c2ccccc2n1C	-5.0	0	0.5	5	-3	-0.5%

Next records follow.
SMILES	D2 agonist	CtBP-E1A inh	TRPML1 agonist	Six1-Eya2 inh	D2 PAM	PINK1 modulator
O=C(CCc1ccncc1)NC1CCCc2c1cnn2-c1cc(F)cc(F)c1 (stereo unspecified)	-1.3	-25	0.5	8	-5	0.8%
COc1ccc(CCN(CC(=O)NCc2ccc(F)cc2)C(=O)c2snc(C(N)=O)c2N)cc1OC	-3.8	1	0.3	1	-4	1.7%
COc1ccc(C2C(C(=O)NCCN3CCOCC3)c3ccccc3C(=O)N2C2CCCCC2)cc1 (stereo unspecified)	-7.0	5	-0.1	-1	-18	5.1%
Cc1ccc(C(=O)OCC(=O)NC(C)c2ccccc2)cc1C (stereo unspecified)	-2.7	-10	2.8	7	-19	6.3%
CCCCn1c(N)c(N(CC(C)C)C(=O)c2ccc(C)c(S(=O)(=O)N3CCCCC3)c2)c(=O)[nH]c1=O	-2.2	12	0.3	-2	-19	-0.3%
O=C(OCC1OC(n2ccc(=O)[nH]c2=O)C(Cl)C1O)c1ccccc1 (stereo unspecified)	-1.2	8	-1.1	1	1	-1.8%
O=C(O)c1ccc(Nc2ncnc3c2cnn3Cc2ccccc2)cc1	5.0	16	1.9	2	-5	1.2%
O=C(O)c1cccnc1Sc1ccccc1	-2.9	-9	0.5	0	-5	2.3%
CC1CCCN(C(=O)CSc2n[nH]c(-c3cccs3)n2)C1 (stereo unspecified)	-3.8	1	-0.7	5	-1	1.3%
Cc1ccc(NC(=O)c2nc[nH]c2C(=O)N[C@@H](C)C(=O)OC(C)(C)C)cc1	-0.2	-1	1.2	-16	-3	5.9%
CC(C)(C)[C@H]1CCC(=O)N([C@H](CSc2ccc(Br)cc2)Cc2ccccc2)CC1	-7.4	4	0.0&0.4	-4	-10	4.7%
Oc1ccc(/C=N/N2CCN(C3c4ccccc4-c4ccccc43)CC2)cc1O	1.8	-4	-0.7	-10	1	?
CCCN1C2=NS(=O)(=O)CCN2c2ccccc21	-3.5	-4	-0.9	0	-42	-0.2%
NC(=O)N/N=C/c1ccccc1OCC(=O)NCc1ccccc1	-0.6	-3	0.7	4	-2	0.1%
C(=C(c1ccccc1)c1ccccc1)c1ccccn1	0.2	.	1.2	12	5	10%
Cc1c(C(=O)N/N=C/c2ccccc2)[nH]c2c([N+](=O)[O-])cccc12	1.4	4	-0.1	-2	-1	12%
CCN(C(=S)NC(=O)C1CCCC1)C1CCCCC1	2.4	0	-1.2	12	2	4.7%
Cn1ccc2c(-c3ccc(C(F)(F)F)cc3)cc3c(c21)C1CCC3O1 (stereo unspecified)	-3.3	-14	-0.6	-6	-3	8.5%
CC(C)Oc1ccc(C(CC(=O)O)Cc2ccccc2)cc1 (stereo unspecified)	0.4	6	-0.2	0	-5	-0.7%
Cc1c(C(=O)N2CCN(c3ccc([N+](=O)[O-])cc3)CC2)sc2ncn(CC(=O)N3CCOCC3)c(=O)c12	-0.9	-24	0.0	-4	-1	-0.2%
COc1cc2c(cc1OC)CN(C(=O)c1cc(=O)c3ccccc3o1)CC2	-1.9	0	-0.2	0	12	7.5%
O=C(NCCc1c[nH]c2ccccc12)/C(=C/c1cccnc1)NC(=O)c1ccco1	-5.1	-1	0.3	6	-3	0.6%
CCOc1ccccc1C(=O)N(Cc1ccco1)C1CCS(=O)(=O)C1 (stereo unspecified)	-0.9	3	1.3	4	20	-1.1%
Cc1occc1C(=O)N/N=C/C=C/c1ccc(N(C)C)cc1	1.7	-13	3.3	6	-17	1.2%
